High-throughput results: PubChem BioAssay, several laboratories
RecA splice inh: Mtb RecA intein splicing inhibitors, primary screen, biochemical, fluorescence, HTS | AID 2221, 2009 | Protein RecA (Mycobacterium tuberculosis (strain ATCC 25618 / H37Rv)), P9WHJ3 | inhibition, %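 (about 9 µM by stock and volumes)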 | hit rate 0.75% among 290,000 | cell-free RecA intein splicing; in the data active = inhibition above about 30%; inconclusive = no clear call, values can overlap the other calls;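 note: 0% = vehicle wells and 100% = reference inhibitor control wells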
Target sequence (P9WHJ3 whole entry, looked up, canonical isoform): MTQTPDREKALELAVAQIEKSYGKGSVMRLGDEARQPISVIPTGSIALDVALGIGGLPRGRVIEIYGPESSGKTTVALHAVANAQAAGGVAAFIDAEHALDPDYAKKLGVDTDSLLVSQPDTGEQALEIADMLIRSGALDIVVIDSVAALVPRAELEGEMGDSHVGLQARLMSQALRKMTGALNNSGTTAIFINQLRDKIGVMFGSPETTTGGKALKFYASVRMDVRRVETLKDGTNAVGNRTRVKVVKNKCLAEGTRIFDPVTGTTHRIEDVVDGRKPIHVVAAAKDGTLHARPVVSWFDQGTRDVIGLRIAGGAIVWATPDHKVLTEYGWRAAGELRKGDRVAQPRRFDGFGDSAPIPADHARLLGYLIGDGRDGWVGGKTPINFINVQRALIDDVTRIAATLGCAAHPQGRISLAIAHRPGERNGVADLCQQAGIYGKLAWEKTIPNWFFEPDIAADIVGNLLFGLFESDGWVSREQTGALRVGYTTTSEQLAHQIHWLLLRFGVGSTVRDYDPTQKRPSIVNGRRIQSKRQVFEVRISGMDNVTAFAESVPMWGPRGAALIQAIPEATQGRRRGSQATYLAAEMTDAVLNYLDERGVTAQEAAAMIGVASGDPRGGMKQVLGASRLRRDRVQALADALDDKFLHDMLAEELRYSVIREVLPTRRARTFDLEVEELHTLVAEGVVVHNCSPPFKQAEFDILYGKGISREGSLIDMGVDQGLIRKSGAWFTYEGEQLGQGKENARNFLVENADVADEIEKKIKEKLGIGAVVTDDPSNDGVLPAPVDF
YopH PTP inh: YopH tyrosine phosphatase inhibitors, primary screen, biochemical, fluorescence Ex485/Em525; YopH tyrosine phosphatase [Yersinia enterocolitica]; inhibition, %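 (about 10 µM by stock and volumes)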; hit rate 0.16% among 140,000;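 active = inhibition of 50% or more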;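 note: controls were vehicle for no effect and minimum signal wells for full effect; inactives centre near -20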
Mtb H37Rv: M. tuberculosis H37Rv growth inhibitors, H37Rv strain (AID 1626) | hit rate 0.95% among 220,000 | M. tuberculosis H37Rv growth inhibition; higher % means a stronger effect | one-dose inhibition, % at 10 µM; IC50 in µM for titrated hits;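 active = confirmed in a dose series; inconclusive = inhibition above 80% but not taken into the dose series; inactive = below 80% or under 30% at every dose of the series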;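 note: bacteria incubated seven days before Alamar blue readout; 0% = bacteria only wells and 100% = bacteria with antibiotic wells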
Arbovirus inh: antivirals against arbovirus infection, primary screen, cell-based, full library, 10K replicate subset; arbovirus infection cell-based antiviral screen; inhibition, % at 10 µM; hit rate 0.37% among 200,000; AID 1251, 2008;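 active = inhibition from about 30%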;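 note: bluetongue infection of BSR cells; cell survival read as ATP light after 72 h; 0% = infected wells without compound and 100% = uninfected wells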
Mtb bLac sens: beta-lactam sensitization of Mtb H37Rv, H37Rv. inhibition, % at 25 µM. AID 434955, 2010. M. tuberculosis H37Rv growth with meropenem, percent inhibition; hits of this screen are not shown here. hit rate 0.27% among 330,000;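 active = about 74% or more and at least 40 points above the plate without the antibiotic, then above 30% in a dose series; inconclusive = first-round hits that could not be retested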;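 note: growth measured after seven days incubation then overnight dye step; 0% = bacteria only wells and 100% = bacteria with antibiotic; twin plates without the antibiotic show which effects depend on it; some results filed as inactive read as strong as hits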
Arbovirus inh repeat: recorded beside Arbovirus inh, whose call it bears; inhibition, %; measured here: 10K subset replicate screen; many hits read low in the repeat;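 first of two repeat runs on a subset; 0% = infected and 100% = uninfected wells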
The depositor's hits bear a star; ? = inconclusive; . = no result given.

SMILES | RecA splice inh | YopH PTP inh | Mtb H37Rv | Arbovirus inh | Mtb bLac sens | others
Cc1ccc(S(=O)(=O)NCCS(=O)(=O)N2CCN(c3ccccc3)CC2)cc1 | -2.2 | . | . | . | -5
N#Cc1c(-c2ccccc2)nc2n1CCS2 | -0.4 | . | -3% | 8 | -7
Cc1ccc(-c2nnn3c2nc(NCCc2ccc(S(N)(=O)=O)cc2)c2ccccc23)cc1 | -4.0 | -8 | 4% | -8 | ?
C/C(=N/N=C/c1ccccc1O)c1ccccc1O | -5.1 | . | . | . | 6
CCC(Sc1nc(N)c(NC(=O)c2ccc(OC)cc2)c(=O)[nH]1)C(=O)O (stereo not drawn) | -6.8 | . | 1% | 10 | -15
COc1ccccc1CCNC(=O)c1ccoc1C | . | 4 | -8% | 3 | -7
CCOC(=O)c1c(C(=O)OCC)c(C)n(CCc2ccc(OC)c(OC)c2)c1C | 2.7 | -21 | -1% | 7 | 1
CC1=C(C(=O)Nc2ccc(F)cc2)C(c2ccc(C)o2)C2=C(CC(C)(C)CC2=O)N1 (stereo not drawn) | -1.7 | -33 | -2% | -3 | -3
Cc1c(C(=O)N2CCCCC2)c(S(=O)(=O)Nc2ccc(F)cc2F)c(C)n1C | 0.5 | . | . | . | -5
CC(C)Sc1cc(N2CCOCC2)nc(-c2ccc(Cl)cc2)n1 | -1.3 | -35 | -6% | 1 | 14
COc1ccc(CCCc2n[nH]c(=S)n2C)cc1C | 0.5 | . | . | 6 | -4
Cc1ccc(NC(=S)N2CCN(S(C)(=O)=O)CC2)cc1 | 0.0 | . | . | . | -1
CCOC(=O)c1nc2cc3n(c(C)c-2c1C)C(C)C(C)=C3C (stereo not drawn) | -3.6 | -5 | 6% | -14 | -9
COc1cccc(C(=O)NC(=S)N2CCN(c3ccc(C(F)(F)F)cc3[N+](=O)[O-])CC2)c1 | 1.9 | -45 | ? | -3 | 5
CCc1ccccc1NC(=S)N(Cc1cccnc1)Cc1ccco1 | 0.5 | -21 | 0% | 3 | 10
Cc1cc(C)cc(NC(=O)c2cccc3c2C(=O)N(C2CCCCC2)C3)c1 | -2.6 | . | . | . | -1
CCOc1ccc(N2C(=O)S/C(=C\c3ccc(O)c(OC)c3)C2=O)cc1 | . | . | 1% | . | 12
COc1ccc(C2CCN(Cc3cccnc3)CC2O)cc1 (stereo not drawn) | -1.4 | -19 | 2% | 4 | -5
COc1ccc(N2C(=O)CSCC2=O)cc1OC | 0.6 | . | 8% | 0 | -6
COc1cccc(CN(C)C(=O)CNC(=O)c2ccc(-c3ccccc3)cc2)c1OC | 6.0 | . | . | . | 4
NC(=O)NC(=O)COC(=O)c1sc2ccccc2c1Cl | 0.0 | . | -8% | . | -4
OCCC1CN(Cc2ccc3cc(Cl)ccc3n2)CCN1Cc1ccsc1 (stereo not drawn) | 12 | . | 8% | 4 | 13
Cc1nc2n[nH]c(N)c2c2c1COC(C)(C)C2 | 1.3 | -11 | -2% | -1 | 7
Cn1c(CO)cnc1SCc1ccc([N+](=O)[O-])cc1 | 2.3 | -8 | 7% | 1 | 22
COc1ccc(Cl)c2sc(N3CCN(C(=O)C4=COCCO4)CC3)nc12 | -3.4 | . | . | . | 26
COCc1[nH][nH]c(=O)c1C=Nc1ccc(F)cc1F | 4.8 | -13 | . | 1 | -8
C[N+]1(CCOC(=O)C2(c3ccccc3)CCCC2)CCCCC1 | -2.8 | . | -2% | -3 | -2
Cc1ccc(C)c(COC(=O)c2cc([N+](=O)[O-])ccc2N2CCOCC2)c1 | 10 | . | . | . | 11
CCc1ccccc1NC(=O)c1ccc(F)c(S(=O)(=O)N2CCC(C(N)=O)CC2)c1 | -3.9 | 8 | -3% | -5 | ?
Cc1cc(C)cc(N(CC(=O)Nc2cccc(C)c2C)S(=O)(=O)c2c(C)[nH]c(=O)[nH]c2=O)c1 | -9.5 | . | . | . | -3
O=C(/C=N/O)NCCCN1CCCCCC1 | -1.8 | -22 | 4% | 4 | -2
COCCN(C(=O)c1ccccc1)c1nc(-c2ccc(OC)cc2)cs1 | 0.8 | . | . | . | 3
O=C1Cc2ccccc2N1c1ccccc1 | -1.0 | -27 | -10% | 3 | 3
Cc1nc2ccccc2c2oc(C(=O)NC3CC3)cc12 | 0.2 | -9 | 3% | -7 | -1 | Arbovirus inh repeat=-13
Cc1ccccc1N(C(=O)c1ccccn1)C(C(=O)NCc1ccccc1)c1ccncc1 (stereo not drawn) | -1.3 | . | . | . | -3
Cc1ccc(C(=O)NC(NCC2CCCO2)C(Cl)(Cl)Cl)cc1 (stereo not drawn) | -0.9 | -22 | -2% | 5 | 11
CCOC(=O)c1oc2ccccc2c1NC(=O)CN1CCN(C)CC1 | -0.8 | -26 | -11% | 8 | -3
Cc1ccc(NC(=O)c2ccc3nc[nH]c3c2)cc1C | -1.8 | -13 | 3% | -1 | 9
O=C(NCC(=O)N1CCN(c2ccccc2O)CC1)c1ccco1 | -4.0 | . | . | . | -14
Cc1nc2c(C)c(C)c(C)c(C)c2nc1C | -1.1 | . | -7% | . | -3

Structures shown so far containing two or more sulfur atoms:
SMILES | RecA splice inh | YopH PTP inh | Mtb H37Rv | Arbovirus inh | Mtb bLac sens | others
Cc1ccc(S(=O)(=O)NCCS(=O)(=O)N2CCN(c3ccccc3)CC2)cc1 | -2.2 | . | . | . | -5
Cc1ccc(NC(=S)N2CCN(S(C)(=O)=O)CC2)cc1 | 0.0 | . | . | . | -1

Other results:
SMILES | RecA splice inh | YopH PTP inh | Mtb H37Rv | Arbovirus inh | Mtb bLac sens | others
O=C(O)c1c(Cl)c(Cl)c(Cl)c(Cl)c1C(=O)N1CCCCCC1 | -0.9 | . | -8% | 0 | -3
c1ccc(-c2ccc(CNC3CC3)cc2)cc1 | 1.6 | . | . | . | -4
Clc1cccc(N/N=C/c2ccc(N3CCOCC3)cc2)c1 | 0.0 | -34 | ? | -36 | 99
COC(=O)c1ccccc1NC(=S)NC(NC(=O)c1ccco1)C(Cl)(Cl)Cl (stereo not drawn) | 11 | -19 | -1% | -2 | 6
CCOc1ncccc1C(=O)NNC(=O)c1ccc(NS(=O)(=O)c2cccs2)cc1 | 2.7 | . | . | . | 1
COc1ccc(Cc2nc3ccc(C(=O)N(C)Cc4nccs4)cc3o2)cc1OC | -0.3 | . | . | . | 11
CC1CCN(S(=O)(=O)c2ccc(C(=O)Nc3nnc(-c4ccncc4)o3)cc2)CC1 | 1.0 | . | 42% | -11 | 78
O=C(NNC(=O)c1ccccc1[N+](=O)[O-])c1cnccn1 | 1.4 | -37 | -9% | 0 | -4
COc1ccccc1N1CCN(S(=O)(=O)c2c(C)[nH]c(C)c2C(=O)N2CCCCC2)CC1 | -3.0 | . | . | . | 7
O=S(=O)(c1ccccc1C(F)(F)F)N1CCN(CC(O)COc2ccccc2F)CC1 (stereo not drawn) | 2.3 | . | . | . | 3
Cc1ccc(N(CC(=O)O)C2SC(=O)NC2=O)cc1 (stereo not drawn) | -2.4 | 14 | 2% | -2 | -8
O=S(=O)(NCC(c1ccco1)N1CCc2ccccc2C1)c1ccc(F)cc1 (stereo not drawn) | 8.3 | . | . | . | -14
COCc1cc(Sc2ccc(OC)cc2)nc(-c2ccccc2)n1 | 1.6 | . | 11% | 2 | -1
CN(C)CCOC(=O)NCC12CC3CC(CC(C3)C1)C2 | -5.2 | . | -1% | . | -5
Cc1cccc(C(=O)N[C@H](C(=O)NCCc2ccc(S(N)(=O)=O)cc2)C(C)C)c1 | 0.1 | . | . | . | -5
COC(=O)CCC(=O)NS(=O)(=O)c1ccc(N=NN2CCOCC2)cc1 | 3.2 | . | 4% | 1 | -4
N#CCCn1cc(C=C(C#N)C#N)c(-c2ccc(-c3ccccc3)cc2)n1 | 0.2 | -27 | 12% | 2 | 7
O=C(Nc1nc(-c2ccccn2)cs1)C1CCCC1 | -1.4 | . | 2.5µM* | -22 | 83
COc1ccc(C(=O)NNC(=O)c2ccccc2[N+](=O)[O-])cc1Br | 2.1 | -22 | -1% | -2 | 3
CC1=C/C(=N\N=C2\NC(=O)C(CC(=O)Nc3ccccc3)S2)CC(C)(C)C1 (stereo not drawn) | 2.2 | . | 38% | 0 | 38
CCc1ccccc1NC(=O)Nc1ccc(F)cc1F | -0.5 | . | 4% | -4 | -6
Cc1cc(N2C(=O)C(O)=C(C(=O)c3ccco3)C2c2cccc(Oc3ccccc3)c2)no1 (stereo not drawn) | 5.9 | . | . | . | -2
C=CCn1c(SCn2nnc3ccccc3c2=O)nnc1-c1ccc(F)cc1 | 1.8 | -28 | -4% | 2 | 5
OCC1(Cc2ccccc2)CCCN(Cc2ccc(-c3ccco3)cc2)C1 (stereo not drawn) | 3.5 | . | -2% | -26 | 49
OCCN1CCN(CC(O)COc2ccc(Cl)cc2)CC1 (stereo not drawn) | 1.1 | -33 | 1% | 5 | -5
CCC(c1nnnn1C(C)(C)CC)N(CCCO)Cc1cc2cccc(C)c2[nH]c1=O (stereo not drawn) | 0.7 | 10 | -2% | 11 | -17
O=C(CCCn1nnnc1CN1CCOCC1)N1CCC(c2ccc(F)cc2)C1 (stereo not drawn) | -0.6 | . | . | . | -4
Cc1ccc(NC(=O)Cn2cc([N+](=O)[O-])nc2C)cc1C | 0.2 | . | . | . | 2
Cc1ccc(NC(=O)C2CC(=O)N(Cc3ccccc3)C2)cc1S(=O)(=O)N1CCCCCC1 (stereo not drawn) | 4.2 | -17 | 14% | -11 | 31
Cc1cc(=O)[nH]c(SCC(=O)Nc2ccnc3ccccc23)n1 | -3.2 | . | -1% | -3 | -13

Pulled by compound from above, 5 records:
SMILES | RecA splice inh | YopH PTP inh | Mtb H37Rv | Arbovirus inh | Mtb bLac sens | others
CCOc1ncccc1C(=O)NNC(=O)c1ccc(NS(=O)(=O)c2cccs2)cc1 | 2.7 | . | . | . | 1
CCc1ccccc1NC(=O)Nc1ccc(F)cc1F | -0.5 | . | 4% | -4 | -6
CCOC(=O)c1c(C(=O)OCC)c(C)n(CCc2ccc(OC)c(OC)c2)c1C | 2.7 | -21 | -1% | 7 | 1
Cc1cc(C)cc(N(CC(=O)Nc2cccc(C)c2C)S(=O)(=O)c2c(C)[nH]c(=O)[nH]c2=O)c1 | -9.5 | . | . | . | -3
CCc1ccccc1NC(=O)c1ccc(F)c(S(=O)(=O)N2CCC(C(N)=O)CC2)c1 | -3.9 | 8 | -3% | -5 | ?

Continuation:
SMILES | RecA splice inh | YopH PTP inh | Mtb H37Rv | Arbovirus inh | Mtb bLac sens | others
CCOc1ccc(Nc2ccc3nonc3c2[N+](=O)[O-])cc1 | 4.7 | . | . | . | 56
CN1CC(=O)N(CC(=O)Nc2cc(Cl)cc(Cl)c2)C1=O | 0.3 | . | -3% | 5 | 8
Cn1c2ccccc2c(=O)c2c(O)cccc21 | 0.4 | . | 2% | 14 | -2
COc1ccc2c(c1OC)CCC2=O | -0.4 | -24 | -5% | -2 | -6
CCCn1c(N)c(C(=O)CSc2nc(C)cs2)c(=O)[nH]c1=O | 0.0 | 1 | -3% | 2 | -5
COCCNC(=O)CCc1c(C)nc2c(c(C)nn2-c2ccc(C)c(C)c2)c1C | 1.5 | . | . | . | -3
CCN1CCC(NC(=O)Nc2cccc(C(F)(F)F)c2)CC1 | 0.3 | . | -7% | -10 | 3
Cc1ccccc1C1NC(=O)c2ccccc2O1 (stereo not drawn) | 6.3 | . | . | . | -5
CCC(C)(C)NC(=O)C(c1ccc(F)cc1)N(Cc1cccs1)C(=O)c1cnccn1 (stereo not drawn) | -2.5 | . | -5% | 13 | 7
CC(C)(C)C(=O)NCCc1nc2ccccc2n1CC(=O)c1ccc(Cl)cc1 | 3.9 | -26 | 2% | -7 | 1
CCN(CC)S(=O)(=O)c1ccc(O)c(C(=O)OCC(=O)N2c3ccccc3CC2C)c1 (stereo not drawn) | -1.3 | . | -13% | . | -4
O=C(O)c1ccc(N2CCN(C(c3ccccc3)c3ccccc3)CC2)c([N+](=O)[O-])c1 | -0.5 | . | . | . | 2
COC(=O)c1nnn(-c2nonc2N)c1CN1CCCC1 | -0.6 | . | . | . | -3
O=C(CN1CCN(C(=O)c2c(F)cccc2F)CC1)Nc1ccccc1C(F)(F)F | 0.5 | . | . | . | -2
COC(=O)c1ccc(NC(=O)Nc2ccc([N+](=O)[O-])cc2)cc1 | -0.7 | . | . | . | 44
C=CCNC(=O)COC(=O)c1ccc(Cl)c(S(=O)(=O)N(Cc2ccccc2)c2ccccc2)c1 | 4.7 | -23 | -13% | 5 | -2
CCOc1ccc(S(=O)(=O)NCCC(=O)NCc2ccncc2)cc1 | -4.1 | . | . | . | 0
COc1cc2c(cc1OC)CN(C(=O)CSc1nnc(C)s1)CC2 | -1.8 | -7 | 8% | -1 | -4

These rows are one share of the data; count on the stated rates, not on these rows.
